Six1-Eya2 inh: inhibitors of human Six1/Eya2 interaction | Q15475+O00167 | AlphaScreen GST-Six1/His-Eya2 binding, biochemical; hits give low values; control for the full effect not named in the record | activity change, % (test concentration not listed) | actives 0.56% (n = 360,000); in the data active = activity change below about -65%; inconclusive = about -30% to -65%; inactive = above about -30%; further: on the % scale 0 is the no-effect control and ±100 the full control effect; compound concentration not given in the record
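Homogeneous AlphaScreen proximity assay pairing GST-Six1 with His-tagged Eya2 (added as 5X mix: 250 nM and 500 nM) in 50 mM Tris pH 8.0, 300 mM NaCl, 1 mM TCEP. Glutathione donor and nickel acceptor beads; 1 h, 37 °C, dark.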
TRPML1 ag: activates the human TRPML1 channel; Q9GZU1; actives 0.12% (n = 410,000); TRPML1-expressing cells, Ca2+ dye fluorescence, FDSS; host cell line not named in the record; reference of the full effect not given here; activation, % (test concentration not listed); AID 624414; in the data active = activation above about 50%; inconclusive = about 30% to 50%; inactive = below about 30%; further: 0% is about no effect; the text of the record puts the active cut at 80%
Target sequence (Q9GZU1 whole entry, looked up): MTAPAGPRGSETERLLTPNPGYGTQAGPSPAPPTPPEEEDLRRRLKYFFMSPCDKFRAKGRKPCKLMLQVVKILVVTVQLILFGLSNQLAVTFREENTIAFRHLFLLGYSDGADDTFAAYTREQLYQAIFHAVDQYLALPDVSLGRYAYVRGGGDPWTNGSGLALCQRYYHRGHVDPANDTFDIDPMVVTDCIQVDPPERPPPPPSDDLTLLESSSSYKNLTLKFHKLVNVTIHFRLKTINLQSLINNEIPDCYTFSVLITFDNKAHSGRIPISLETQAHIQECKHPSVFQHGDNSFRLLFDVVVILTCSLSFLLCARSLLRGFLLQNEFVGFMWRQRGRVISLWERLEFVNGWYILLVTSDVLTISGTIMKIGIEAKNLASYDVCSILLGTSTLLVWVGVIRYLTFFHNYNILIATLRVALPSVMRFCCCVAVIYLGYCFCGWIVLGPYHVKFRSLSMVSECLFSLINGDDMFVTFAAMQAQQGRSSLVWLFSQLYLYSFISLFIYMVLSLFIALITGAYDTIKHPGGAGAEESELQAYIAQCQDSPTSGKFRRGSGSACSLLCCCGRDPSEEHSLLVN
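TRPML1-DL cells, Tet-induced overnight (~16 h, 37 degrees C), loaded 45-90 min at room temperature with Ca8 no-wash calcium dye plus quencher. FDSS fluorescence: 10 s baseline, compound pin-transfer, 110 s agonist read, then EC80 54-4 (4uM final) and 110 s antagonist read.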
D2 ag: agonists of human D2 dopamine receptor (beta-arrestin); DiscoveRx PathHunter D2 beta-arrestin, luminescence, 90 min; 100% = 57 uM dopamine signal; actives 0.084% (n = 360,000); activation, % (test concentration not listed); in the data active = activation above about 40%; inconclusive = about 15% to 40%; inactive = below about 15%; further: compound concentration not given in the record; the text of the record calls up to 30% inactive
Target sequence (P14416 whole entry, looked up): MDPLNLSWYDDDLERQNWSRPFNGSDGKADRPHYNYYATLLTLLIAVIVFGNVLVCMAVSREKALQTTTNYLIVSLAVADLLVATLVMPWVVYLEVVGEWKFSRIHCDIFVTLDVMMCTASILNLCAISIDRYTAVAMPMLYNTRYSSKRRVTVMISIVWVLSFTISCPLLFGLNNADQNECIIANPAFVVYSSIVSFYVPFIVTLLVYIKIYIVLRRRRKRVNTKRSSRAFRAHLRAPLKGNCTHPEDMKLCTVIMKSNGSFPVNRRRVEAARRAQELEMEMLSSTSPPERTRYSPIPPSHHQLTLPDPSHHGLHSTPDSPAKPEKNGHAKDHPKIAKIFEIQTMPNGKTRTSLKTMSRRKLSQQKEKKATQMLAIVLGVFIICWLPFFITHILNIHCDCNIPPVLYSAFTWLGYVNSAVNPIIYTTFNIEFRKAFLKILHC
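DiscoveRx PathHunter D2 beta-arrestin cells (2,100/well) attached overnight, then compound-stimulated 90 min at 37 C in HBSS/10 mM HEPES/0.1% Tween-20 buffer; beta-galactosidase complementation read by luminescence after 1 h at ambient temperature. Dopamine 57 uM final (EC100) as control.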
CtBP-E1A inh: CtBP/E1A binding inhibition; AlphaScreen GST-E1A/His-CtBP binding, 1536-well; hits give low values; control for the full effect not named in the record; activity change, % (concentration not given with the values); actives 0.49% (n = 340,000); in the data active means activity change below about -65%; inconclusive means about -30% to -65%; inactive means above about -30%; further: on the % scale 0 is the no-effect control and ±100 the full control effect
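In 5 uL wells, 23 nL compound meets equimolar GST-E1A and His-CtBP (5X stock 125 nM each) for 2 h, 37 °C. Beads (5X, 50 ug/mL) then 1 h, 37 °C, dark.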
D2 potentiator: positive allosteric modulators of human D2 dopamine receptor; P14416; DiscoveRx D2 beta-arrestin cells, luminescence, 90 min; 100% = 57 uM dopamine signal; potentiation, % (no concentration beside the values); actives 0.23% (n = 360,000); AID 624464; active = potentiation of 50% or more; inconclusive = 30% to 50%; inactive = 30% or less;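 further: compound concentration not given in the record; tested on top of an EC20 dose of dopamine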
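D2 cells co-treated with compound plus 50 nM dopamine (EC20) for 90 min at 37 deg C to detect potentiation. Beta-arrestin recruitment was read as enzyme-fragment luminescence after 1 h at ambient temperature. Full response was set by 57 uM dopamine.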
PINK1 modulator: modulators of PINK1 expression; PINK1 immunofluorescence, high-content cytometry, 24 h; Potency, µM (highest dose often 76.6 µM), inactives show at the top dose activation (PINK1 increase), most hits filed as activators; actives 0.2% (n = 410,000); AID 624263; active = well fitted activation curve with a large enough effect; inconclusive = small, poorly fitted or top-dose-only effect; inactive = flat fitted curve, though single readings scatter; cell line not stated here;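 further: potency means the concentration at half of the fitted maximal effect; % of control where 0% means no effect; nearly all actives have a fitted effect of over 65% in size; a mitochondrial uncoupler was the plate control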
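Cells are seeded, rested 12 hours, then given compound at five concentrations or DMSO for 24 hours. After fixation, blocking and antibody staining, PINK1 amount and mitochondrial localization are scored; CCCP serves as control.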
An asterisk follows results filed as active; ? = inconclusive; nt = no result given; & = joins results of further samples; [ ] = remark or other dose.

SMILES	Six1-Eya2 inh	TRPML1 ag	D2 ag	CtBP-E1A inh	D2 potentiator	PINK1 modulator
CCOC(=O)C(NS(=O)(=O)c1ccccc1)(C(F)(F)F)P(=O)(OCC(C)C)OCC(C)C (stereo unspecified)	-10	-0.5	-3.3	-14	-19	-0.1%
Cc1nnc2n(-c3ccccc3)c(=O)c3ccccc3n12	15	0.5	-2.5	-3	0	-1.3%
CCOc1cc(C2CC(=O)NC(SCC)=C2C#N)ccc1O (stereo unspecified)	-7	-0.9	0.7	6	1	2.3%
Cc1cc(S(=O)(=O)NCCN2CCOCC2)c(C)s1	5	-0.8	-1.8	1	-19	1.2%[38.3 µM]
O=C(NC1CCNCC1)C1CCCCC1	7	0.2	-2.2	2	-2	-0.4%
COc1ccc(S(=O)(=O)N2C3CCC2CC(NC(=O)C2CC2)C3)cc1 (stereo unspecified)	-3	1.0	-1.1	4	4	-1.8%
COc1ccc(CCN(C)C(=O)C2CCN(Cc3ccc(C)cc3)CC2)cc1OC	9	-0.1	0.5	0	-21	0.0%
O=C(NC1CCCN(Cc2ccc(Cl)cc2)C1)c1ccoc1 (stereo unspecified)	1	-0.4	-0.8	-5	-20	-0.4%
N#CCCN(C(=O)COC(=O)CCc1nc2ccccc2c(=O)[nH]1)c1ccccc1F	5	0.0	-5.0	-14	-12	1.0%
O=C(NCc1cccc(OC(F)(F)F)c1)c1ccc2c(c1)S(=O)(=O)c1cc(Cl)ccc1C2=O	2	0.1	12	5	3	4.9%
COc1ccc(CNC(=O)COC(=O)CCS(=O)(=O)c2ccc(C)cc2)cc1OC	10	-0.2	-1.3	2	-6	2.7%
C=CCn1c(=N)c(C(=O)NCCCOC)cc2c(=O)n3cc(C)ccc3nc21	3	-0.4	-3.0	5	-4	0.3%
N#CCCN(Cc1cccnc1)C(=S)NC(=O)c1ccc(S(=O)(=O)N2CCCC2)cc1	2	-0.7	-4.2	1	-8	0.3%
CCCNC(=O)C(=O)NCC(c1ccc2c(c1)OCO2)N1CCN(c2ccc(F)cc2)CC1 (stereo unspecified)	-7	0.5	-0.5	nt	-12	2.7%
CN(C)/C=C/C(=O)c1ccc(F)cc1F	-24	1.6	-4.6	-11	-6	-0.8%
COc1ccc(N=C2NC(=O)S/C2=C\c2ccc(N(C)C)cc2)cc1	-14	22	-4.8	-3	-47	?
O=C(/C=C/c1ccco1)Nc1ccc2c(c1)OCO2	-6	-0.1	-3.8	-2	-11	6.0%
CN1CC2=Cc3ccccc3OC23Oc2ccccc2C=C3C1	-5	-0.8	-7.7	-2	-42	8.2%
CNc1cnc(-c2ccsc2)cn1	3	-1.0	-3.6	0	-2	0.0%
C/C(=N\NC(=S)Nc1ccc(C)cc1)c1cc2ccccc2o1	?	0.9	-5.4	?	-7	-0.4%
COc1cccc(-c2[nH]nc3c2C(c2ccoc2)C(C#N)=C(N)O3)c1 (stereo unspecified)	-5	-0.4	-2.5	-8	-8	3.9%[38.3 µM]
Cc1cc(C)c2nc(NC(=O)C3CSC4(C)CCC(=O)N34)sc2c1 (stereo unspecified)	15	-0.1	0.1	nt	3	7.7%
O=C(Nc1ccc(S(=O)(=O)NC2=NCCCCC2)cc1)c1ccc(C(F)(F)F)cc1	0	0.5	-1.8	nt	-15	-0.9%
O=C(O)c1ccc(COc2c(F)c(F)c(F)c(F)c2F)o1	-5	1.9	-2.4	4	-7	6.6%[38.3 µM]
O=C1CCC/C1=C/Nc1cccc(F)c1	-5	-0.1	1.0	-3	-4	-0.2%
CN1CCc2c1nc1ccccc1c2NC(=O)CN1CCCC1	-1	0.1	-2.3	-22	-9	2.1%
COc1ccc(Cl)cc1C(=O)NNC1CC(=O)N(Cc2ccc(Cl)cc2)C1=O (stereo unspecified)	-2	0.3	-1.4	-5	5	2.7%
O=c1c2c([N+](=O)[O-])cc([N+](=O)[O-])cc2sn1-c1ccc(Br)cc1	?	-0.4	11	-20	61*	0.9%
CCOC(=O)c1[nH]c(C)c(C(=O)N(C)Cc2ccccc2)c1C	-2	-0.3	-2.3	0	4	3.9%[38.3 µM]
CC(C)(C)c1ccc(C(=O)Nc2cccc([N+](=O)[O-])c2)cc1	-11	0.0	4.5	-9	-15	45µM*
O=C(Nc1ncccn1)c1cc(-c2cccc(Br)c2)nc2ccccc12	-18	0.9	-1.6	-6	7	1.5%
CCOc1ccccc1C(=O)NC1CC2CCCC(C1)N2Cc1ccccc1 (stereo unspecified)	3	-0.6	-1.4	-1	-43	-1.6%
O=C(O)CN=CC1=C(O)CC(c2ccccc2)CC1=O (stereo unspecified)	5	-0.1	3.0	nt	-1	0.9%
COC(=O)C1CCN(C(=O)C2CC(=O)N(c3ccc(C)c(Cl)c3)C2)CC1 (stereo unspecified)	-9	-0.5	-1.5	0	-4	1.5%
COCCNC(=O)C(c1ccc(F)cc1)N(C(=O)CCC(=O)Nc1nccs1)c1ccc(C)cc1 (stereo unspecified)	-3	2.4	1.3	0	-9	0.5%
CSc1nc(NC(C)=O)nc(C)c1Br	-3	-0.7	-1.0	0	-13	-0.5%

A draw from above in order of formula weight, descending.
SMILES	Six1-Eya2 inh	TRPML1 ag	D2 ag	CtBP-E1A inh	D2 potentiator	PINK1 modulator
O=c1c2c([N+](=O)[O-])cc([N+](=O)[O-])cc2sn1-c1ccc(Br)cc1	?	-0.4	11	-20	61*	0.9%
CCOC(=O)c1[nH]c(C)c(C(=O)N(C)Cc2ccccc2)c1C	-2	-0.3	-2.3	0	4	3.9%[38.3 µM]
CN1CCc2c1nc1ccccc1c2NC(=O)CN1CCCC1	-1	0.1	-2.3	-22	-9	2.1%
CC(C)(C)c1ccc(C(=O)Nc2cccc([N+](=O)[O-])c2)cc1	-11	0.0	4.5	-9	-15	45µM*
O=C1CCC/C1=C/Nc1cccc(F)c1	-5	-0.1	1.0	-3	-4	-0.2%

Continuation:
SMILES	Six1-Eya2 inh	TRPML1 ag	D2 ag	CtBP-E1A inh	D2 potentiator	PINK1 modulator
CCn1c(=N)n(CC(=O)c2ccc(OC)cc2)c2ccccc21	7	-0.1	-2.5	-3	2	0.5%
Cc1cc(C)cc(NC(=O)COC(=O)CCC2CCCC2)c1	11	4.6	-2.3	-12	0	-0.4%
O=C(O)C1CC2CCC1CC2 (stereo unspecified)	1	0.6	-0.9	1	2	-2.4%
Cc1nc(CSc2nc3[nH]ncc3c(=O)n2-c2ccccc2)cs1	-2	0.4	-1.7	-1	-5	2.1%
COc1cc(NC(=O)[C@H]2O[C@@H](n3ccc(N)nc3=O)[C@H](O)[C@@H]2O)cc(OC)c1OC	6	-0.2	-2.2	4	-7	-0.9%
CC(C)(C)[C@H]1C=C(C(=O)N2CCN(Cc3ccc4c(c3)OCO4)CC2)O[C@@H](OCCCCO)C1	-2	-0.8	-1.7	0	-13	-1.7%
COc1ccccc1-c1cccc(-c2nc(C(=O)N3CCCCC3)cc3c2[C@@H](CCO)N(S(=O)C(C)(C)C)C3)c1 (stereo partly specified)	-7	-0.5	0.8	1	-1	0.4%
Cc1ccc(NC(=O)CN(C)C(=O)CCC(=O)c2cccs2)cc1	-8	-0.5	0.4	-3	-13	-1.2%
Cc1cccc(C)c1NC(=O)CN1CCN(C/C=C/c2ccccc2)CC1	11	-0.3	-5.0	4	-8	0.4%
O=C(/C=C/c1cccc(Br)c1)NC1CCN(Cc2ccccc2)CC1	-3	1.4	-1.6	-10	-24	5.9%
O=C(COC(=O)Cc1cccs1)Nc1ccccc1	4	-0.9	-1.7	-3	9	0.4%
CCOc1ccc(CN(C)C(C)C(=O)Nc2ccc([N+](=O)[O-])cc2Cl)cc1OC (stereo unspecified)	?	-0.1	2.6	6	9	1.2%
O=C(CCCC(=O)c1ccccc1)Nc1ccc(F)cc1	-1	-0.4	-4.3	4	-9	1.1%
CC(C)Oc1cccc(C(=O)Nc2nnc([C@@H]3C[C@H](O)[C@@H](CO)O3)s2)c1	6	-0.3	-3.0	8	1	0.9%
CCc1nc(N)c(C#N)c(-c2cccn2C)c1C	-5	0.1	-1.4	-2	-2	3.4%
CCCCCOc1ccc(N2C(=O)CC(N(O)c3ccccc3)C2=O)cc1 (stereo unspecified)	-4	0.1	7.2	-4	22	9.1%
COc1ccc(NC(=O)COC(=O)c2n[nH]c3ccccc23)c(OC)c1	-4	-0.3	-3.2	nt	-1	0.8%
COCCCn1c(SCC(=O)NC(C)C)nnc1-c1ccccc1	10	-0.3	-0.8	-4	2	-0.9%
O=C(Nc1cccc2nsnc12)c1ccc(-c2cccc(Cl)c2)o1	12	0.2	0.7	23	51*	25%
CN1CCN(S(=O)(=O)c2ccc(Cl)cc2)CC1	5&4	0.4&-0.4	2.6&1.9	2	-6&-4	-1.8%&1.7%
COc1cc(C)c(S(=O)(=O)NC2CC(C)(C)NC(C)(C)C2)cc1C	3	-0.4	-1.7	3	-24	-1.8%
Cn1c(CN2CCCCC2)c(C#N)c2ccccc21	2	0.0	-3.9	0	-22	1.3%[38.3 µM]
CCNC(=O)c1cc2c(=O)n3cccc(C)c3nc2n(CCc2ccccc2)c1=N	?	-0.6	-4.9	-29	-13	0.0%
CCO[C@H]1OC(C(=O)Nc2ccccc2)=C[C@@H](C2CC2)[C@@H]1CCCO	1	-0.6	-1.6	0	-14	-0.5%
CC(C)CCn1c(SCCc2ccccc2)nc2c1c(=O)[nH]c(=O)n2C	4	1.3	-3.3	14	-6	3.3%
Cc1ncc([N+](=O)[O-])n1CC(=O)Nc1ccc(Cl)cc1	2	0.2	-1.1	-7	-5	1.0%
C=CCn1c(SCC(=O)NC2CC2)nnc1-c1cccs1	0	-0.3	0.3	6	-2	0.1%
O=C1OC(c2ccccc2)/C(=C(/O)c2ccccc2)C1=O (stereo unspecified)	10	-0.6	-2.0	2	-2	-1.6%
CCN(CC)CCOC(=O)C(Cc1ccco1)Cc1cccc2ccccc12 (stereo unspecified)	-19	0.0	-2.3	-22	-15	5.7%
CCOc1ccc(CC(=O)Nc2ccc(S(=O)(=O)N3CCCC3)cc2)cc1	-1	0.0	-2.3	4	-11	2.3%
O=C(NCCN1CCN(c2ccccc2)CC1)c1cccn2c(=O)c3ccccc3nc12	3	1.3	-3.8	-3	-27	12%
CN(CCC1CCCCO1)C(=O)CCc1nnc(CCCCc2ccccc2)o1 (stereo unspecified)	0	0.5	5.0	nt	-6	-0.1%
O=C(Cc1ccc([N+](=O)[O-])cc1)NCc1ccccc1Cl	-1	-1.2	-2.2	-6	-21	-0.4%
Cc1cc(C(F)(F)F)n2nc(C(=O)O)c(Cl)c2n1	-1	-0.3	-1.9	2	-4	4.9%
Cn1c(CNC(=O)Nc2cccc(Cl)c2)nnc1SCc1ccccc1	-1	-0.3	-4.4	-1	-22	-1.2%
C=CCc1ccccc1OCCNCCCOC	8	-1.4	-5.8	7	-32	0.3%
Cc1ccccc1Cc1c(C)nc2c(C(=O)NCc3ccco3)cnn2c1C	-21	-0.4	-3.4	-12	-24	13%[38.3 µM]

Some of the entries above in a different format.
Second line of a record – Six1-Eya2 inh	TRPML1 ag	D2 ag	CtBP-E1A inh	D2 potentiator	PINK1 modulator
Cn1c(CNC(=O)Nc2cccc(Cl)c2)nnc1SCc1ccccc1
  -1	-0.3	-4.4	-1	-22	-1.2%
C=CCc1ccccc1OCCNCCCOC
  8	-1.4	-5.8	7	-32	0.3%

Screening data as filed in PubChem BioAssay.
